From PubChem BioAssay
KCNQ2 pot = potentiators of rat KCNQ2 potassium channel | B-score at 10 µM | Potassium voltage-gated channel subfamily KQT member 2 (Rattus norvegicus), O88943 | CHO-K1 KCNQ2, FluxOR thallium flux fluorescence; hits give high values | actives 0.54% (n = 310,000);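 active = fluorescence ratio B-score at least 3 SD of library B-scores, with initial fluorescence B-score within 3 SD, cut at about 5.3 in these data; same plate scores as AID 2156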;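 note: B-score of peak minus minimum over baseline fluorescence ratio after K+ and Tl+ stimulus; positive B-score means potentiation of KCNQ2 with more thallium influx and brighter signal; only the inactives scoring about 0 or higher are listed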
Target sequence (O88943 whole entry, looked up): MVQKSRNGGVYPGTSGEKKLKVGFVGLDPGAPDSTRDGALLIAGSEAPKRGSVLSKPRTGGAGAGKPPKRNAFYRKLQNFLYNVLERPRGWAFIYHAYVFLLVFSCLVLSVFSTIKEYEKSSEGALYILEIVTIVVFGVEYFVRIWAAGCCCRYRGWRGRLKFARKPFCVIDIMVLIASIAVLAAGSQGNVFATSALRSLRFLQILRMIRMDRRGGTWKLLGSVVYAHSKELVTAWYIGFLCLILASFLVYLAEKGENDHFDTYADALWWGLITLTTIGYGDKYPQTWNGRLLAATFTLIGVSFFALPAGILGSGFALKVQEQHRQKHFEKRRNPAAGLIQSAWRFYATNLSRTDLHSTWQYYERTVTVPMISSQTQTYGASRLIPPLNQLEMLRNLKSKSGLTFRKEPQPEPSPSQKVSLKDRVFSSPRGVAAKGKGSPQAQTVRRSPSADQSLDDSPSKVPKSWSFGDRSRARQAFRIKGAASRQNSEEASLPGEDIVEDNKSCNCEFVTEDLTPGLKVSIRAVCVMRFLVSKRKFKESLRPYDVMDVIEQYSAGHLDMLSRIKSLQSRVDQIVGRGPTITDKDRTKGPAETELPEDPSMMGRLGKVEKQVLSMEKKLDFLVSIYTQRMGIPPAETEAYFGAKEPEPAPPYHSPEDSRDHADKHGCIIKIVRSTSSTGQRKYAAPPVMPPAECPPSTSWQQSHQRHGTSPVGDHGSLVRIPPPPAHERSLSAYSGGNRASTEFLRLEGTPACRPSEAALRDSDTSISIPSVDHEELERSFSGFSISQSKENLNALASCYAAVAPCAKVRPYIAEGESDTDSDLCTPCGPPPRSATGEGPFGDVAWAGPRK
KCNQ2 pot baseline = second read-out of KCNQ2 pot, no call of its own (marks repeat the call); B-score; compound at 10 µM; measured here: initial fluorescence intensity artifact check;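 brightness before thallium and not channel activity; 0 = typical well and far values either way flag optical interference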
Starred values were filed as active, the others as inactive. These rows are one share of the data; the hit share may differ from the screen's.

The line under a structure holds: KCNQ2 pot	KCNQ2 pot baseline
CN(Cc1ccco1)S(=O)(=O)c1nnc(NC(=O)c2cccc(Cl)c2)s1
  0.92	0.77
O=C(NCCOc1ccccc1F)c1ccccc1SCc1ccc(F)cc1
  0.26	0.93
CCOC(=O)CCC(NC(=O)CCCC(=O)NC(CCC(=O)OCC)C(=O)OCC)C(=O)OCC (centres undefined)
  0.3	-0.12
O=C(O)C[C@H]1c2cc(C(F)(F)F)ccc2S(=O)(=O)N1C1CCCC1
  0.66	0.1
CCOC(=O)c1ccc(NC(=O)c2nc(S(=O)(=O)Cc3ccccc3)ncc2Cl)cc1
  0.95	2.4
Cc1ccc(C)c(-c2nnc(NC(=O)c3ccc([N+](=O)[O-])o3)o2)c1
  0.06	0.9
C=CCOc1ccc(CNc2ccc(NC(=O)CC(C)C)cc2)cc1OC
  1.4	-0.39
CC1=NN(C(N)=S)C(=O)C1N=Nc1ccccc1C (centres undefined)
  0.1	-0.05
COc1ccc(OC)c(CCNC(=O)Cn2ccc3cc(S(=O)(=O)N4CCCC4)ccc32)c1
  1.5	0.87
Cc1ccc(Oc2ncccc2C(=O)NC2CCSC2=O)cc1 (centres undefined)
  1	2.6
CCOC(=O)c1cc(NC(=O)N(C)C2CCCCC2)c(C)nc1C
  1	-1.2
O=C(/C=C/c1cccs1)NCc1cccs1
  1.8	-0.19
COC(=O)c1cc(NC(=O)c2ccccc2)c(=O)oc1C
  0.46	-1.6
Cc1ccc(C(=O)NNC(=O)CCC(=O)NCc2ccccc2)cc1Br
  0.02	-2.1
Cn1c(=O)[nH]c(=O)c2c1nc(CN1CCOCC1)n2CCCO
  1.2	0.8
CC(=O)Nc1ccc(NC(=O)C2C3CCC(C3)C2C(=O)O)cc1 (centres undefined)
  0.75	0.9
COc1ccc(C2CCCN2C(=S)Nc2cccc(C)c2C)cc1OC (centres undefined)
  2.5	-1.1
CC(C)Nc1ncnc2c1cnn2Cc1ccccc1Cl
  0.82	0.79
COC(=O)c1cn(Cc2ccccc2C)nn1
  1.4	-0.54
CC(=O)N(C)c1ccc(NC(=O)C(Sc2ccccc2)c2ccccc2)cc1 (centres undefined)
  0.82	1

Of the compounds above, 2 contain an aryl thioether with sulfur outside any ring:
The line under a structure holds: KCNQ2 pot	KCNQ2 pot baseline
O=C(NCCOc1ccccc1F)c1ccccc1SCc1ccc(F)cc1
  0.26	0.93
CC(=O)N(C)c1ccc(NC(=O)C(Sc2ccccc2)c2ccccc2)cc1 (centres undefined)
  0.82	1

Other results follow:
The line under a structure holds: KCNQ2 pot	KCNQ2 pot baseline
Cc1cc(C)c(N=Cc2c(O)n(-c3nccs3)c(=O)c3ccccc23)c(C)c1
  2.7	-2.2
Cc1cc(C(=O)Nc2ccccc2C(=O)O)c(C)o1
  0.5	-0.04
CCN(CC)S(=O)(=O)c1ccc(Cl)c(NC(=O)COc2ccc(OC)cc2)c1
  0.95	0.12
COCCn1c(SCC(=O)NCC2CCCO2)nc2c(c1=O)SC(C)C2 (centres undefined)
  2.4	0.04
O=[N+]([O-])c1ccc(/C=N/NC(=S)Nc2ccc(Cl)cc2Cl)s1
  0.77	-0.79
COc1ccc(S(=O)(=O)N2CCCC(C(=O)Nc3cccc(C(C)=O)c3)C2)cc1 (centres undefined)
  0.53	-1.1
CC1CCN(C(=O)COC(=O)c2cccc(NS(=O)(=O)c3ccccc3)c2)CC1
  1.5	-0.85
Cc1nn(Cc2noc(C(=O)NCCc3ccccn3)n2)c(C)c1Br
  1.6	0.03
NC(=O)C1CCN(C(=O)c2cnn(-c3ccccc3)c2NC(=O)c2ccco2)CC1
  1.4	-0.81
CC(/C=N/NC(=O)c1cccc(F)c1)=C\c1ccccc1
  0.03	-0.72
Cc1ccc(Sc2ccc(NC(=O)CCl)cc2)cc1C
  0.54	0.31
CC(=O)Oc1ccc(-n2c(=O)c3ccccc3c3ccccc3c2=O)cc1
  0.32	-0.54
Cc1c(Cl)cccc1N=c1c([N+](=O)[O-])nn(-c2ccccc2)n1O
  0.09	0.39
O=C(c1cccnc1)N1CCN(C(=O)c2ccccc2F)CC1
  0.96	0.92
O=C(O)CCNC(=O)c1ccc(N=Nc2ccc(O)c(C(=O)O)c2)cc1
  0.33	0.53
Cc1cccc(NC(=O)CSc2nnc(Cn3nnc(-c4ccccc4)n3)n2-c2ccccc2)c1
  0.31	0.53
CC(C)c1nnc(NC(=O)C2CCN(C(=O)c3ccco3)CC2)s1
  0.02	0.04
CCCOC(=O)Oc1ccc2c(=O)c(Oc3cc(C)cc(C)c3)coc2c1
  0.67	-2.5
Nc1nc(F)cc(NCc2ccccc2)n1
  0.48	1
COc1cc(CN2CCC(CO)(CCOc3ccccc3)CC2)cc(OC)c1
  0.21	1.2

Following part:
The line under a structure holds: KCNQ2 pot	KCNQ2 pot baseline
N#CC1(NC(=O)CSc2nnc(-c3ccccc3F)n2N)CCCCC1
  0.12	-0.24
CN(C)/C=C/C1=C([N+](=O)[O-])C(c2cccc([N+](=O)[O-])c2)NC(=O)N1 (centres undefined)
  0.16	-0.83
COc1ccccc1C(=O)Nc1ccnn1C1CCN(Cc2ccccc2OCCO)CC1
  1.3	0.32
Cc1ccc(NC(=O)C2CC(=O)N/C(=N/N=C/c3ccco3)S2)cc1 (centres undefined)
  0.06	-0.02
COc1ccc(NC(=O)CCCNC(=O)Cn2cnc3sc(C)c(C)c3c2=O)cc1Cl
  1.1	1.7
Cc1cc(O)c(-c2ccno2)cc1Cl
  1.3	-0.28
O=C(O)C(c1ccccc1)N1C(=O)/C(=C\c2ccc(-c3ccc(Br)cc3)o2)SC1=S (centres undefined)
  2	0.67
Cn1c(SCC(=O)NC(=O)Nc2ccccc2)nnc1-c1ccncc1
  1.1	1.5
CCOC(=O)c1[nH]c(C)c(C(=O)N2CCN(C(=O)c3ccco3)CC2)c1C
  2.5	-2.4
CC(C)CN(C(=O)C1CCCO1)C1CCS(=O)(=O)C1 (centres undefined)
  0.26	-0.57
O=C(N/N=C/c1cccs1)c1n[nH]c2c1CCCC2
  2.3	1.2
Cc1cccc(-n2c(Cc3ccccc3)nnc2SCC(=O)N2CCOCC2)c1
  0.62	-2.3
COc1cc(/C=N/NC(=O)c2cccc(NC(=O)c3ccccc3)c2)ccc1O
  0.94	-0.11
Cc1cc(N2CCOCC2)ccc1/C=C1\NC(=O)N(Cc2ccccc2F)C1=O
  0.29	0.61
CCN(C(=O)N1CCOCC1)c1ccccc1
  0.52	0.18
O=C(NCCCNC(=O)c1ccco1)c1ccc(Cl)c(Cl)c1
  0.3	0.15
O=C(NCc1cccnc1)C1COc2ccccc2O1 (centres undefined)
  0.06	-0.34
Cc1cc(C)c2ccc(=O)n(CC(=O)N/N=C/c3ccccc3Cl)c2n1
  1.2	0.15
CN(C)CCCNC(=O)c1cc(C(=O)c2ccccc2F)c[nH]1
  0.46	0.62
O=C(NCc1cccc(Cl)c1)C1CCC(=O)N(CCCN2CCCC2=O)C1 (centres undefined)
  0.09	-1.3

Complete entries as entered above:
O=C(NCc1cccnc1)C1COc2ccccc2O1 (centres undefined) is entered as KCNQ2 pot = 0.06; KCNQ2 pot baseline = -0.34
CN(C)CCCNC(=O)c1cc(C(=O)c2ccccc2F)c[nH]1 is entered as KCNQ2 pot = 0.46; KCNQ2 pot baseline = 0.62
Cc1cc(O)c(-c2ccno2)cc1Cl is entered as KCNQ2 pot = 1.3; KCNQ2 pot baseline = -0.28

Next section:
The line under a structure holds: KCNQ2 pot	KCNQ2 pot baseline
Cc1cc(C)c(S(=O)(=O)n2cnc3ccccc32)c(C)c1
  0.16	-1.7
Cc1scc(C(=O)N/N=C/c2ccc(OC(C)C)cc2)c1C
  0.24	-1.1
Cc1cccc(NS(=O)(=O)c2nnc(NC(=O)CC(C)C)s2)c1
  1.2	0.23
O=C(CCS(=O)(=O)c1cccc2nsnc12)NC1CCCCCC1
  1.6	-2.2
c1ccc2c(c1)N1CCCN=C1N2CCN1CCCCC1
  1.7	0.76
COc1ccc(NC(=S)N2CCC(NC(=O)c3ccc(OC)cc3)CC2)cc1
  0.85	-0.55
Cc1cccc(-c2nc(=S)c3c(o2)CCCC3)c1
  0.54	-0.15
CCOc1ccc2nc(NC(=O)CSc3nc(-c4ccccc4)c(C#N)c(=O)[nH]3)sc2c1
  2.2	-1
NC1=NC(=O)/C(=C/c2cccc(F)c2)S1
  0.65	-0.42
COc1ccc(C(=O)NNC(=O)c2snnc2C)cc1
  0.61	0.12
CC(C)N1CCN(c2ccc(S(=O)(=O)N3CCOCC3)cn2)CC1
  0.25	-0.1
Cc1ccc(CNC(=O)CSc2nc(C)cs2)cc1
  2.1	-2
O=C(Nc1nnc(SCc2ccc(F)cc2)s1)C1CC(=O)N(c2ccc3c(c2)OCCO3)C1 (centres undefined)
  0.33	1.4
CC(C)c1ccc(CN2C(=O)NC3(CCCCCC3)C2=O)cc1
  3.4	0.43
COc1ccc2c(c1)C1OCCC1C(c1ccco1)N2 (centres undefined)
  1.9	-0.51
COc1cccc(C2CC(c3cccs3)=NN2S(C)(=O)=O)c1 (centres undefined)
  1.9	0.02
CCC(Sc1ncccc1C(=O)OC(C)C)C(=O)N1CCOCC1 (centres undefined)
  1.2	2.6
CCN(CC)C(=O)N1CCn2c(nc3ccccc32)C1
  0.38	-0.02
COc1ccc(NC(=O)c2cncn2-c2ccccc2)cc1
  0.91	-0.16
CCCNC(=O)NCCc1ccncc1
  1.8	-0.31

Remaining list, next part
The line under a structure holds: KCNQ2 pot	KCNQ2 pot baseline
CCOc1ccccc1N(CC(=O)Nc1ccc(OC)cc1)S(=O)(=O)c1ccccc1
  0.01	-0.5
COCC(C)n1c(C)cc(C(=O)COC(=O)CNC(=O)c2ccccc2)c1C (centres undefined)
  0.88	-0.62
CCOC(=O)C1CCN(S(=O)(=O)c2c(C(=O)N3CCCCC3)c(C)n(C)c2C)CC1
  1.8	-0.88
Cc1ccc(NC(=O)C2CCN(C(=O)N3CCOc4ccccc43)CC2)cc1
  1	1.1
COc1ccc(CCNC(=O)c2nonc2N)cc1OC
  0.34	-1.2
N#Cc1cccc(NC(=O)CSc2nnc(-c3n[nH]c4ccccc34)o2)c1
  0.86	0.12
Cc1cccc2nc(CSc3nc4[nH]ncc4c(=O)n3-c3cccc(Cl)c3)cc(=O)n12
  0.56	-0.22
CCCn1cnc2sc(C(N)=O)c(C)c2c1=O
  0.56	0.13
CCOC(=O)c1sc2nc(C)nc(NC3CCC(O)CC3)c2c1C (centres undefined)
  0.49	0.09
CCN(CC(=O)Nc1ccc(NC(C)=O)cc1)C(=O)c1c(-c2c(F)cccc2Cl)noc1C
  0.02	2.4
CCSC1=C(C#N)C2(CCCCC2)C(C#N)C(=O)N1 (centres undefined)
  1.7	0.01
CCN(CC(=O)Nc1ccc(OC)cc1)C(=O)c1cc(S(=O)(=O)N2CCOCC2)ccc1N1CCCC1
  2	0.07
Cc1ncc([N+](=O)[O-])n1Cc1ccc(Cl)cc1
  0.63	2
N#Cc1ccc(Oc2ccc(S(=O)(=O)N3CCCCC3)cn2)cc1
  0.22	-0.47
CN1CCN(C(=O)CCN2C(=O)/C(=C/c3ccccc3Cl)SC2=S)CC1
  2.2	-0.01
Cc1ccccc1NS(=O)(=O)c1ccc(OCC(=O)NCC2CCCO2)cc1 (centres undefined)
  0.76	-1.6
Cc1cc(C)nc(Nc2ncc(O)n2-c2ccc(C)c(Cl)c2)n1
  0.27	-0.61
CCOc1ccc(NC(=O)CSc2nnc(N)s2)c([N+](=O)[O-])c1
  1.7	0.35
O=C(O)Cn1cnc2scc(-c3ccccc3)c2c1=O
  0.09	-0.01
O=C(O)/C=C/C(=O)NCC1CCC(CNC(=O)/C=C/C(=O)O)CC1 (centres undefined)
  0.98	1.4

Next section.
The line under a structure holds: KCNQ2 pot	KCNQ2 pot baseline
COCCNC(=O)C1CCC(Cn2c(=S)[nH]c3ccccc3c2=O)CC1 (centres undefined)
  0.33	0.67
Cc1ccc(S(=O)(=O)Nc2ccc(NC(=O)c3cccs3)cc2)cc1
  0.01	1.6
S=c1[nH]nc(-c2cccnc2)o1
  0.32	-0.16
O=C(OCC(=O)N1CCN(c2ccccc2)CC1)c1ccccn1
  0.59	-2.5
CC(=O)c1cccc(NC(=O)N2CCCC2C(=O)Nc2c(C)cccc2C)c1 (centres undefined)
  2.7	0.72
O=C(c1ccccc1)N1CCN(Cc2c[nH]c3ccccc23)CC1
  1.2	0.02
Cc1ccc(C)c(C(=O)CCC(=O)N2CCN(c3ncccn3)CC2)c1
  0.6	-1.4
C=CCn1c(CCCNC(=O)C(C)(C)C)nc2ccccc21
  1.2	0.07
COc1ccc(S(=O)(=O)Cc2ccc(C(=O)NC3CCCC3)o2)cc1
  2.5	-0.28
COc1ccc(N(CC(=O)NC2CCCC2)C(=O)Cn2nnc(-c3ccc(F)cc3)n2)cc1OC
  1.4	0.04
CCC(C)[C@H](NC(=O)N1CC(=O)Nc2ccccc21)C(=O)N1CCC[C@H]1C(=O)O (some centres undefined)
  0.35	-0.11
Cc1ccc2occ(-c3nn[nH]n3)c(=O)c2c1
  0.94	-0.82
COc1ccc(C(=O)C2CCCN(S(=O)(=O)C(C)C)C2)c(C)c1 (centres undefined)
  0.13	0.38
O=C(O)Cc1nc2nc3c(c(=O)n2[nH]1)CCCC3
  0.57	-0.01
N#Cc1nc(Cc2cccc3ccccc23)oc1N1CCCCC1
  1.3	-0.87
O=C(NCCN1CCOCC1)/C(=C/c1ccco1)NC(=O)c1ccccc1
  0.11	-0.51
C=CCN(C(=O)CNC(=O)c1ccco1)C(C(=O)NC1CCCC1)c1ccc(OC)cc1 (centres undefined)
  0.41	-4.2
